# Compound activity deposited in PubChem BioAssay by Johns Hopkins Ion Channel Center.
# Kir21 block = inhibitors of mouse Kir2.1 inward-rectifier potassium channel; P35561; HEK293-Kir2.1, FluxOR thallium flux fluorescence; hits give low values; B-score at 10 µM; actives 0.85% (n = 310,000);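 active = fluorescence ratio B-score at or below minus 3 SD of library scores, with starting-brightness B-score within 2 SD, cut at about -4.2 in these data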;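 also: channel flux triggered by added potassium and thallium sulfate stimulus; B-score of peak minus minimum fluorescence over baseline after thallium stimulus; more negative B-score means stronger Kir2.1 block with less thallium influx; some compounds called inactive have numbers as strong as hits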
# Target sequence (P35561 whole entry, looked up): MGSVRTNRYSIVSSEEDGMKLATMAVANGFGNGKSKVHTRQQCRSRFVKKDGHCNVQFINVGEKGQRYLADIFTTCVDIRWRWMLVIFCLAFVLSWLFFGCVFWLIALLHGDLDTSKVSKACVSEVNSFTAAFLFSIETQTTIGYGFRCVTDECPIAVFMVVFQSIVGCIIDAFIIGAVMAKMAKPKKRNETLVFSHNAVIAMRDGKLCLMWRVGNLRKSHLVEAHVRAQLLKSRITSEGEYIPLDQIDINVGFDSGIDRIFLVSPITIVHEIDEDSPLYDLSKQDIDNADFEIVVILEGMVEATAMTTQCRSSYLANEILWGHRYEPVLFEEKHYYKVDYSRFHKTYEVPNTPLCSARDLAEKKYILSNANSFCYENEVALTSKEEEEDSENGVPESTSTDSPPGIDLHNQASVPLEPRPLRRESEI
# * = called active by the depositor. An excerpt, and most or all hits are left out here.
Kir21 block,mol
-1.7,O=C(O)c1cccc(Nc2ncnc3ccc(Br)cc23)c1
-0.34,CS(=O)(=O)c1ccc(C(=O)OCC(=O)NC(=O)C2CCCCC2)cc1[N+](=O)[O-]
-1.7,Cc1ccc(-n2c([C@@H]3C[C@H]3c3ccccc3)n[nH]c2=S)cc1
-0.63,COc1ccccc1/C=C/C(=O)NCC(=O)N/N=C/c1ccccc1[N+](=O)[O-]
0,COc1cc(/C(C)=N/NC(=O)c2ccc(CSc3nncn3C)cc2)cc(OC)c1OC
0.79,CCCC(=O)c1ccc(N2CCN(S(=O)(=O)c3ccccc3)CC2)c(F)c1
1.9,CNC(=O)c1cc2cc(Cl)cc(OC)c2oc1=O
0.17,COc1ccc(NC(=O)CCSc2ccc3ccccc3n2)cc1
-2.2,O=C(NCc1cccnc1)c1ccc(Cl)c(S(=O)(=O)N2CCCCCC2)c1
0.27,CCN(CC)c1ccc(NS(=O)(=O)c2cn(C)c(=O)n(C)c2=O)c(C)c1
2.8,O=C(NCC1CCCO1)NC1(C(F)(F)F)Oc2ccccc2O1 (stereo unspecified)
-0.65,COc1cccc(-c2nc(CS(=O)(=O)CC(=O)Nc3cccc(C(C)=O)c3)c(C)o2)c1
1.1,Cc1cccc(CN2CCN(CC(=O)NCc3ccc(F)cc3)C2=O)c1
-0.92,O=c1cc(CSc2n[nH]c(-c3ccncc3)n2)nc2sccn12
-1.4,COc1ccc(S(=O)(=O)N2CCCC(C(=O)NCCCn3ccnc3)C2)cc1OC (stereo unspecified)

# Structural class: the entries above containing a halogen (6)
Kir21 block,mol
-1.7,O=C(O)c1cccc(Nc2ncnc3ccc(Br)cc23)c1
0.79,CCCC(=O)c1ccc(N2CCN(S(=O)(=O)c3ccccc3)CC2)c(F)c1
1.9,CNC(=O)c1cc2cc(Cl)cc(OC)c2oc1=O
-2.2,O=C(NCc1cccnc1)c1ccc(Cl)c(S(=O)(=O)N2CCCCCC2)c1
2.8,O=C(NCC1CCCO1)NC1(C(F)(F)F)Oc2ccccc2O1 (stereo unspecified)
1.1,Cc1cccc(CN2CCN(CC(=O)NCc3ccc(F)cc3)C2=O)c1

# (cont.)
Kir21 block,mol
0.71,COc1ccc(S(N)(=O)=O)cc1C(=O)NCCCN1CCN(c2ccccc2OC)CC1
0.63,CC(C)N(C(=O)Nc1ccc2nsnc2c1)C(C)C
0.89,Cc1cc(-c2ccccc2)nc2oc3c(c12)NC(=O)CN(c1ccccc1)C3=O
1.3,CC(=O)N/C(=C\c1ccccc1)C(=O)OCC(=O)NC1CCCC1
1.6,COc1ccc(C(CNC(=O)Cn2c(=O)oc3ccccc32)N(C)C)cc1 (stereo unspecified)
-1.1,O=Cc1c(NCc2ccccc2F)c2ccccc2[nH]c1=O
-0.02,CCCCCCCC(=O)NN1CCOCC1
-0.14,CCN(CC)c1ccc(NC(=O)COC(=O)c2ccc3ccccc3n2)cc1
0.43,O=C1CC(N2CCN(c3ccccc3)CC2)C(=O)N1CCc1ccccc1 (stereo unspecified)
-0.04,CSc1nsc(SCC(=O)Nc2ccc(F)cc2)n1
-0.05,Cc1cccc(NC(=S)NNC(=O)COc2ccc(Cl)cc2Cl)c1
-0.01,N#Cc1c(C(F)(F)F)cc(-c2ccc(Cl)cc2)nc1SCC(=O)O
0.73,CC(=O)NCCC(=O)NCc1ccc(F)cc1
-1.9,Cc1ccc(-c2nc(CS(=O)CC(=O)NC3CCCCC3)c(C)o2)cc1 (stereo unspecified)
0.05,COc1ccc(OC)c(NC(=O)c2ccc(S(=O)(=O)N3CCN(C)CC3)cc2)c1
0.23,CCOc1ccc(NC(=S)N(CCN2CCOCC2)Cc2ccc3c(c2)CCCN3CC)cc1
-0.46,N#C/C(=C\c1c(N2CCN(c3ccccc3)CC2)nc2ccccn2c1=O)C(N)=O
0.81,Cc1ccc(S(=O)(=O)N2CCN(Cc3nc4ccccc4n3C)CC2)cc1
0.38,CNS(=O)(=O)c1cccc(C(=O)OCC(=O)c2cc3ccccc3o2)c1
0.18,COc1cccc(NC(=O)Nn2cnnc2)c1
-1.4,O=C(O)C1CC=CCC1C(=O)Nc1ccccc1Cl (stereo unspecified)
0.4,C=C(C)c1cccc(C(C)(C)NC(=O)Nc2cccnc2)c1
0.29,CCOC(=O)c1nnc(-c2cccs2)nc1NC(C)C
-0.62,COCCCn1c(SCc2nnc(-c3ccc(OC)c(OC)c3)o2)nc2ccccc2c1=O
0.67,CCC1CCC/C1=N\NC(=O)c1ccoc1C (stereo unspecified)
1.6,O=[N+]([O-])c1cccc(N/N=C/c2ccc(N3CCOCC3)cc2)c1
0.19,O=C(C[n+]1ccccc1)N/N=C/c1cc(Br)ccc1O
1.7,Cn1c(SCc2ccc(C(C)(C)C)cc2)nnc1C1COc2ccccc2O1 (stereo unspecified)
0.49,Cc1ccc(C(C)C)c(OCC(=O)N/N=C2\CC(=O)CC(C)(C)C2)c1
0.64,COc1ccc(NC(=O)Nc2nnc(-c3ccco3)s2)cc1
-0.21,CCn1c(SCC(=O)Nc2ccc(C(C)=O)cc2)nc2ccccc21
0.83,C/C(=N\NC(=O)c1cccc(S(=O)(=O)N2CCCCC2)c1)c1ccc(C)o1
0.29,COC(=O)c1[nH]c2cc(OC)ccc2c1NC(=O)CCN1CCCCC1
0.03,COc1cc(/C=C2\C(=O)N(CCC#N)N=C2C)ccc1OCC(=O)Nc1ccccc1
1.3,COc1ccc2oc(-c3ccc(NC(=O)c4ccc(N5CCOCC5)c([N+](=O)[O-])c4)cc3)nc2c1
2,COc1ccc2nc(SCC(=O)NCC3CCCO3)c(C#N)cc2c1 (stereo unspecified)
0.76,O=C(O)CCc1ccc(-c2ccccc2)n1NC(=O)c1sc2ccccc2c1Cl
-0.01,CCOC(=O)c1c(C)nn(-c2ncccc2NC(=O)CCC(=O)O)c1C
0.33,CCN1CCN(C(=O)c2cc3sccc3n2CC(=O)c2ccccc2)CC1
-0.01,O=C(CN1CCN(Cc2ccccc2)CC1)c1ccccc1
-1.1,C=CCSc1nnc(NC(=O)CSc2nnc(C)s2)s1
-0.96,Cn1c(=O)[nH]c(=O)c2c1nc(NC1CCCCC1)n2Cc1ccccc1
0,COC(=O)c1coc(-c2ccc(OC)cc2)c1C(=O)OC
-0.13,COc1ccc2c(c1)O[C@@]1(CCCC[C@@H]1C)CC2=O
2,CCOC(=O)COc1ccc(C(=O)CC)cc1OC

# Filtered by structure: those above with bromine
Kir21 block,mol
-1.7,O=C(O)c1cccc(Nc2ncnc3ccc(Br)cc23)c1
0.19,O=C(C[n+]1ccccc1)N/N=C/c1cc(Br)ccc1O

# Continued.
Kir21 block,mol
-0.47,c1ccc2c(-c3ccncc3)c[nH]c2c1
-0.92,CCOC(=O)C1CCN(C(=O)c2ccc(OC3CCN(C(=O)COC)CC3)cc2)CC1
1.1,Cc1c(NC(=O)CSc2nc3ccccc3s2)c(=O)n(-c2ccccc2)n1C
0.2,N/N=C(\c1ccccc1)C12CN3CN(CN(C3)C1)C2
-0.02,COc1cc(S(=O)(=O)NCc2ccc(F)cc2)ccc1-n1cnnn1
-0.54,COc1ccc(-c2nc(C#N)c(N3CCCCC3)o2)cc1
0.05,COC1CCN(Cc2c(C(=O)N3C[C@@H](C)O[C@@H](C)C3)nc3ccc(Cl)cn23)CC1
0.67,O=C(CCc1nnc(Cc2ccc(-c3ccccc3)cc2)o1)NCC1CC1
0.02,Cc1cccn2c(=O)c(/C=N/O)c(N3CCOCC3)nc12
-0.58,O=C(O)COCC(=O)Nc1ccc(Oc2ncnc3cc(Cl)ccc23)nc1
-0.19,CC(=O)c1cnc(N(C)C)s1
-0.93,COc1ccc(S(=O)(=O)N(C)CC(=O)NCCC2=CCCCC2)cc1OC
0,COc1cc(OC)nc(NC(=O)CSc2nnc(-c3ccccc3)n2C2CCCCC2)n1
-0.17,COC(=O)C(CCCCNC(=O)OCc1ccccc1)NC(=O)CN (stereo unspecified)
-1.4,CC1CCN(c2nc3c(c(=O)[nH]c(=O)n3C)n2CCSc2nc3ccccc3o2)CC1
-0.03,O=C(C(Cc1ccccc1)n1cccc1)N1CCN(C2CCCCC2)CC1 (stereo unspecified)
1.1,c1ccc(CCc2nn3c(Cn4cnc5ccccc54)nnc3s2)cc1
0.15,COc1ccc(C(C)(C)C)cc1S(=O)(=O)N1CCC(C(N)=O)CC1
-2.1,Cc1nnc(NC(=O)CSc2nnc(CNC(=O)C34CC5CC(CC(C5)C3)C4)n2C2CCCCC2)s1
2.2,CCOC(=O)N/N=C/c1c(F)c(F)c(F)c(F)c1F
0.52,COc1ccc(CC(=O)Oc2ccccc2[N+](=O)[O-])cc1
-0.52,Cc1ccnc(NC(=O)C2CCCN(c3ncnc4c3nc3n4CCCCC3)C2)c1 (stereo unspecified)
1.1,Nc1ccc(N(c2ccccc2)c2ccc(N)cc2)cc1
0.65,CC1(C)CC(=O)CC(C)(C)N1OC(=O)c1ccccn1
-3.6,Cc1ccc(CN2C(=O)CCC2C(=O)NCCN(CC(C)C)CC(C)C)cc1 (stereo unspecified)
0.95,CCSc1nnc(Nc2ccc(C)cc2)s1
-3.5,CCOC(=O)C1CCN(Cc2ccc(Cl)c(Cl)c2)CC1
0.74,CN(CCCN1CCOCC1)Cc1nc(-c2ccccc2)no1
0.52,O=C(c1ccc2nc(N3CCCCC3)sc2c1)N1CCN(c2ccccn2)CC1
0.99,CCC(CC)NC(=O)Cc1ccc(F)cc1
0.14,Cc1cccc(-n2nc3c(c2NC(=O)c2cc4ccccc4o2)CS(=O)(=O)C3)c1
-0.82,CCc1nnc(NS(=O)(=O)c2ccc(NC(=O)CCC(=O)O)cc2)s1
0.61,CCCOc1ccc(N2C(=O)CC(NCc3ccncc3)C2=O)cc1 (stereo unspecified)
2.3,COc1ccc(NS(=O)(=O)c2ccc(NC(=O)Cc3cccs3)cc2)cc1
1.1,COc1ccc(OCC(=O)OCC(=O)Nc2ccc(S(=O)(=O)N3CCCCC3)cc2)cc1
1,CCc1ccc(C(=O)NNc2ccccc2F)cc1
-1.8,O=c1c2ccccc2nc2c3ccccc3c3nncn3n12
0.47,COc1ccc(CN(C)C(=O)CCCNC(=O)c2ccc(Cl)cc2)cc1
-0.82,COc1ccc(NC(=O)C2CC(c3cccc(Br)c3)=NO2)cc1OC (stereo unspecified)
-1.4,COc1ccc(OC)c(Cc2nnc(CCC(=O)N3CCCCCC3)o2)c1
-0.97,CCN(CC)CCCn1c(C)cc2c(c1=O)C(c1ccc(OC)c(OC)c1OC)C(C#N)=C(N)O2 (stereo unspecified)
-1.1,O=C(Cc1ccccc1)N1CCNCC1
0.57,Cc1cc(C)cc(NC(=O)COC(=O)[C@@H](NC(=O)c2ccco2)C(C)C)c1
0.42,Cc1ccc(S(=O)(=O)NNC(=O)/C=C/c2cccc(F)c2)cc1
-1.4,C1=C(c2ccccc2)CCN(c2ncnc3nc[nH]c23)C1
0.92,CCOC(=O)c1cnc2c(-c3ccc(Cl)cc3)c(C)nn2c1N
0.68,CC(C)(C)c1ccc(-c2n[nH]c(=S)n2/N=C/c2ccncc2)cc1
-0.25,CCOC(=O)CNC(=O)c1cc2c(=O)[nH]c3ccc(C)cc3c2s1
-0.15,COc1ccc(NC(=O)CSCC(=O)Nc2nnc(CC(C)C)s2)cc1
0.95,CCn1cc(CNC(=O)c2cc(-c3ccccc3OC)nc3ccccc23)c(C)n1
0.2,CCCc1cc(=O)[nH]c2nnc(SCC(=O)Nc3cccc(NC(C)=O)c3)n12
-1.1,NC(=O)c1c(NC(=O)CSc2nnc(-c3ccccc3)n2CC2CCCO2)sc2c1CCC2 (stereo unspecified)
-0.54,COc1ccc(NC(=O)C2=CC(c3ccc(OC)c(OC)c3)=NS(=O)(=O)N2C)cc1
1.9,Cc1cc(C(=O)Nc2c(C)nn(Cc3ccc(Cl)cc3)c2C)no1
0.64,COc1ccc(C(=O)NCC(=O)Nc2ccc(F)cc2)cc1OC
-0.37,Cc1c(OC(C)C(=O)NCCN2CCOCC2)ccc2c3c(c(=O)oc12)CCC3 (stereo unspecified)
0.74,CC(C)Cn1c2c(c(O)c(C(=O)Nc3nc4ccccc4s3)c1=O)CCCC2
0.22,COc1ccc(N(CC(=O)NC2CCCC2)C(=O)CS(=O)CC(=O)Nc2ccc3c(c2)OCO3)cc1 (stereo unspecified)
-1.6,O=C(CSc1nc2cccnc2n1Cc1ccccc1)NCc1ccco1
-0.46,CCn1cc(S(=O)(=O)N2CCN(c3ccc(Cl)cc3)CC2)cn1

# Grouped by structure, the entries above with a CF3 group
Kir21 block,mol
2.8,O=C(NCC1CCCO1)NC1(C(F)(F)F)Oc2ccccc2O1 (stereo unspecified)
-0.01,N#Cc1c(C(F)(F)F)cc(-c2ccc(Cl)cc2)nc1SCC(=O)O

# The list goes on.
Kir21 block,mol
-0.29,CC1CCN(S(=O)(=O)c2ccc(NC(=O)C3CC(=O)N(c4ccccc4)C3)cc2)CC1 (stereo unspecified)
0.89,COc1cnc(NS(=O)(=O)c2ccc(N)cc2)nc1
-0.53,O=C(NCCN1CCN(C(=O)c2cccc(Br)c2)CC1)C(=O)Nc1ccc(Br)cc1
-0.29,O=C(O)CCC(=O)Nc1ccc(N=Nc2ccccc2)cc1
2.3,O=C(O)Cn1cc(/C=C2\SC(=O)N(c3ccccc3)C2=O)c2ccccc21
-0.05,Cn1cc(/C=C(\NC(=O)c2ccccc2)C(=O)NCCN2CCOCC2)c2ccccc21
0,CCN1C(=O)C(NC(C)=O)c2cc(Br)ccc21 (stereo unspecified)
-0.22,CCCOc1ccc(NC(=O)C2CC(=O)N/C(=N/N=C(C)/C=C/c3ccc(N(C)C)cc3)S2)cc1 (stereo unspecified)
-1.4,O=C(CN1C(=O)c2ccccc2C1=O)Nc1nccs1
1.5,Cc1cc(N2C(=O)[C@@H]3[C@H](C2=O)[C@@H]2C[C@H]3C(Br)C2Br)no1 (stereo partly specified)

# As a working copy, part of the list above:
Kir21 block,mol
-1.4,O=C(CN1C(=O)c2ccccc2C1=O)Nc1nccs1
1.5,Cc1cc(N2C(=O)[C@@H]3[C@H](C2=O)[C@@H]2C[C@H]3C(Br)C2Br)no1 (stereo partly specified)
